High-throughput results as filed in PubChem.
AID504770: growth inhibition of E. coli YBA685, primary screen, V. cholerae RctB inhibitors; 130,000 compounds, 0.27% hits; E. coli YBA685 rctB-dependent plasmid, OD600 growth, 3 h; hits give low values; z-score (test concentration not listed);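 active = z-score under -2 on both plates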;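 also: wells of about 30 µL received 100 nL stock; score is relative to mean and SD of the test wells; the first replicate is given; strong numbers were not always called active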
Ba CapD inh: Bacillus anthracis CapD inhibitors, primary screen, biochemical, fluorescence intensity; purified CapD enzyme, fluorescence intensity read-out; hits give low values; some hits fall short of the stated cut; z-score (concentration not given with the values); 140,000 compounds, 0.23% hits;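 active = z-score under -4 in either of two replicates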;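 also: stock transfer was 100 nL into about 40 µL; score is relative to mean and spread of the plate; one replicate is shown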
The depositor's hits bear a star; nt = no result given.

SMILES	AID504770	Ba CapD inh
Fc1ccc(Nc2nc3nonc3nc2Nc2ccccc2F)cc1	-0.55	-2.7
COc1cccc(/C=N/NC(=O)CC#N)c1OC	nt	5.2
CCOC(=O)C1=C(CSc2nc(C)c(C)c(C)c2C#N)OC(N)=C(C#N)C1c1ccc(F)cc1 (stereo not given)	nt	-0.53
CC(Oc1ccc2ccc(=O)oc2c1)C(=O)O (stereo not given)	-1.1	70
CCC(=O)Nc1ccccc1C(=O)N1CCCCC1	-0.75	0.38
Nc1ccc(OCc2ccccc2)cc1	-0.5	0.64
O=S(=O)(NCCc1ccccn1)c1ccc2ccccc2c1	-0.05	0.67
C1CN(c2nnn(CC3CC3)n2)CCO1	-0.9	-0.075
Cc1cc(NC(=O)CC(CC(=O)O)c2ccc(C(F)(F)F)cc2)no1 (stereo not given)	1.6	-1.1
COc1ccc(-c2cc(C(F)(F)F)n3nc(C(=O)NCCCn4ccnc4)c(Cl)c3n2)cc1	nt	-1.2

For reference, three of the compounds above.
SMILES	AID504770	Ba CapD inh
Fc1ccc(Nc2nc3nonc3nc2Nc2ccccc2F)cc1	-0.55	-2.7
COc1cccc(/C=N/NC(=O)CC#N)c1OC	nt	5.2
CCOC(=O)C1=C(CSc2nc(C)c(C)c(C)c2C#N)OC(N)=C(C#N)C1c1ccc(F)cc1 (stereo not given)	nt	-0.53

(cont.)
SMILES	AID504770	Ba CapD inh
CCN(CC)CCOc1c(Br)ccc2c1sc1nc3n(c(=O)c12)CCC3	-0.9	-0.28
NNC(=S)Nc1ccccc1	-3	nt
CC1(C)CC(=O)C(C2C3=C(CC(C)(C)CC3=O)Oc3ccc(Br)cc32)=C(O)C1 (stereo not given)	0.55	2.9
CC(=O)Nc1c(C(C)(C)C)nn2c(C)cc(C(F)(F)F)nc12	0.55	-0.21
CN(Cc1ccccc1)C(=O)C1CCCN(c2ncnc3onc(-c4ccc(F)cc4)c23)C1 (stereo not given)	-0.1	1.7
CC(Oc1ccc(Cl)cc1)C(=O)NCc1ccco1 (stereo not given)	2	nt
CC(=O)Nc1ccc(N=CC2=C(O)CC(C)(C)CC2=O)cc1	-1.4	-0.35
CN(/N=C/c1cc(Cl)cc(Cl)c1O)c1ccc([N+](=O)[O-])cn1	nt	0.79
COc1ccc(NC(=O)c2ccc3oc(=O)c(S(=O)(=O)c4ccccc4)cc3c2)cc1	1	0.21
O=C1CN(Cc2ccccc2)CC(=O)N1	1.4	-0.23
CC(=O)c1ccc(N2CCN(C(=O)CC(CC(=O)C3CC3)c3ccc(Br)cc3)CC2)cc1 (stereo not given)	nt	-0.08
CCc1c(CCN)csc1C	-0.5	-2
COc1ccc(CCn2c(-c3ccc4ccccc4c3)csc2=Nc2ccc(F)cc2)cc1OC	nt	-0.14
OC1(c2cccc(F)c2)CC2CCC(C1)N2 (stereo not given)	1.1	-0.46
O=S1(=O)CC(O)C(S(=O)(=O)Cc2cccc(C(F)(F)F)c2)C1 (stereo not given)	0.55	-0.98
O=C1CCCC2=C1C(c1ccc(Cl)cc1Cl)n1ncnc1N2 (stereo not given)	nt	0.39
Cc1sc2ncnc(N3CCN(Cc4ccc5c(c4)OCO5)CC3)c2c1C	nt	-0.84
Cc1nc2nc(NC(=O)C(c3ccccc3)c3ccccc3)[nH]n2c(=O)c1C	1.5	nt
CN(C)c1nc(Oc2ccc(OCc3ccccc3)nn2)nc(N(C)C)n1	nt	-0.21
COc1ccccc1NC(=O)C(F)(F)C(=O)Nc1ccccc1OC	-0.1	0.095
Cn1c(C2=C(O)CN(c3ccccc3)C2=N)nc2ccccc21	-0.25	1
COc1ccccc1N1CCN(S(=O)(=O)c2ccc(F)c(C(=O)Nc3ccc(Cl)cc3Cl)c2)CC1	nt	-0.33
Cc1ccc(NC(=O)c2cc(S(=O)(=O)N3CCc4ccccc43)ccc2F)cc1C	nt	-0.72
Cc1ccc2nc(-c3ccccn3)cc(C(=O)NCc3cnn(C)c3)c2c1	0.3	4.3
COc1ccccc1NCC(O)COc1ccc(Cl)cc1Cl (stereo not given)	0.6	-0.065
CCC1(CC)COC2(OC1)C(=O)Nc1ccccc12	-0.6	-0.49
CCOC(=O)c1c(C)oc2ccc(N(C(=O)c3ccncc3)S(=O)(=O)c3ccc(Cl)cc3)cc12	nt	-1
O=c1oc(-c2ccccc2F)nc2ccccc12	nt	0.31
C=CCNc1nc(C2(C)CC3(CC(C)(C)OC3=O)C(=O)O2)cs1 (stereo not given)	nt	-0.38
CCOC(=O)c1c(C)n(S(=O)(=O)c2ccc(CC)cc2)c2ccc(NS(=O)(=O)c3ccc(CC)cc3)cc12	nt	-0.35
CCOC(=O)N1CCC(N/C=C(\C#N)S(=O)(=O)c2cccnc2)CC1	-0.4	-0.54
CCN1C(=O)c2ccc(-c3nc4cc(Cl)ccc4c(=O)o3)cc2C1=O	-1	-1.1
O=C(NC1CCN(Cc2ccccc2)CC1)c1cncc(Br)c1	0.8	nt
COc1cc(SC)c(OC)cc1SC	0.8	1.6
O=C(N/C=C/c1ccsc1)Nc1cc(C(F)(F)F)cc(C(F)(F)F)c1	2.2	-0.38
Cc1ccc2c(n1)sc1c(=O)n(CCc3ccccc3)nnc12	-1.1	-0.39
COC(=O)c1cc2cnccc2nc1-c1ccccc1C(F)(F)F	nt	-0.54
CC1CCCCN1C(=O)CSc1nnc(-c2ccccc2)n1-c1ccccc1 (stereo not given)	0.25	nt
c1ccc(-c2cc(NC3CCCC3)n3cnnc3n2)cc1	-0.65	17
CC1Cc2ccccc2N1c1ccc2ccccc2n1 (stereo not given)	1.2	nt
CN(Cc1ccco1)C(=O)c1ccc(N2CCCS2(=O)=O)cc1	-0.35	0.95
O=S1(=O)C=C(Sc2nc3cc(Cl)ccc3o2)c2ccccc21	-0.5	-0.15
CCOC(=O)c1sc(NC(=O)CSc2ncnc3sc(C)c(C)c23)c(C(=O)OCC)c1C	nt	0.075
O=C(Nc1ccc(C2SCCS2)cc1)c1ccccc1	-0.9	0.69
Fc1ccc2nc3[nH]c4ccccc4c3nc2c1	nt	6.5
NC(=O)C(Cc1ccccc1)NS(=O)(=O)c1ccc2c(c1)CN(C(=O)C(F)(F)F)CC2 (stereo not given)	nt	0.55
CCN(CC)c1ccc(C2C3=C(CC(c4ccc(OC)cc4)CC3=O)Nc3ccccc3N2C(C)=O)cc1 (stereo not given)	nt	-0.29
CN1C(=O)/C(=C2\SC(=O)N(Cc3ccccc3)C2=O)c2cc(Br)ccc21	nt	0.65
COc1cnc(-c2ccccn2)nc1Sc1c(Cl)cccc1Cl	nt	-0.8
Cc1csc2nc(CSc3ccc(S(=O)(=O)N4CCOCC4)cn3)cc(=O)n12	-0.15	nt

The list goes on, starting with the last seven of the part before.
SMILES	AID504770	Ba CapD inh
O=C(Nc1ccc(C2SCCS2)cc1)c1ccccc1	-0.9	0.69
Fc1ccc2nc3[nH]c4ccccc4c3nc2c1	nt	6.5
NC(=O)C(Cc1ccccc1)NS(=O)(=O)c1ccc2c(c1)CN(C(=O)C(F)(F)F)CC2 (stereo not given)	nt	0.55
CCN(CC)c1ccc(C2C3=C(CC(c4ccc(OC)cc4)CC3=O)Nc3ccccc3N2C(C)=O)cc1 (stereo not given)	nt	-0.29
CN1C(=O)/C(=C2\SC(=O)N(Cc3ccccc3)C2=O)c2cc(Br)ccc21	nt	0.65
COc1cnc(-c2ccccn2)nc1Sc1c(Cl)cccc1Cl	nt	-0.8
Cc1csc2nc(CSc3ccc(S(=O)(=O)N4CCOCC4)cn3)cc(=O)n12	-0.15	nt
Cc1nn(Cc2ccccc2Cl)c(C)c1CN(C)Cc1cc(=O)n2c3c(sc2n1)CCCC3	-0.2	nt
CN(C)c1ccc(CN2CCN(CCOC(=O)N3CCCC3C(=O)OCc3ccccc3)CC2)c2ccccc12 (stereo not given)	nt	44
COc1c(Cl)cc(Cl)cc1C1Nc2ccc3ccccc3c2C2=C1C(=O)CC(C)(C)C2 (stereo not given)	nt	72
FC(F)(F)c1cnc(Oc2ccc(-c3csnn3)cc2)c(Cl)c1	nt	-0.36
c1ccc(-n2nnnc2NCC2CCCCC2)cc1	-1.2	nt
Cc1cc(C)c2c(n1)nn1c(C3CC3)cc(C(F)(F)F)nc21	0.1	0.73
O=C(NN1C(=O)C2C3C=CC(CC3)C2C1=O)c1cccs1 (stereo not given)	nt	0.55
CCC(C(=O)Nc1c2c(nn1-c1ccc(F)cc1)CSC2)c1ccccc1 (stereo not given)	-0.15	-0.15
COc1cccc(OC)c1C(=O)NCc1ccco1	0.15	-0.075
CCOC(=O)C1=C(C)N=C(SC)N(C(C)=O)C1c1ccccc1 (stereo not given)	0.35	nt
COC(=O)Nc1ccc(Cl)cn1	0.15	0.14
Cc1nn(-c2ccccc2)c2c1C(c1cccnc1)C1=C(CC(C)(C)CC1=O)N2 (stereo not given)	-1.1	81
COc1cccc(C=C2C(=O)N(C)C(=S)N(C)C2=O)c1OC	0.75	0.36
CCOc1ccc(Nc2nc3ccccc3nc2Nc2ccc(OCC)cc2)cc1	-0.85	-0.39
O=C(COCCn1cc(-c2ccc(Cl)cc2)cn1)NCc1cccc(C(F)(F)F)c1	nt	-0.4
COc1cc(-c2cc(C(=O)O)c3cc(Br)ccc3n2)cc(OC)c1OC	-0.45	-0.03
O=C(Nc1ccccc1-c1nc2ccccc2[nH]1)c1ccc(S(=O)(=O)N2CCCCC2)cc1	nt	-0.055
O=C1/C(=C\c2cccs2)SC(=S)N1CC(=O)N(Cc1ccccc1)c1ccccc1	-0.5	-0.97
Cc1ccc2c(c1)-c1c(cnn1CC(=O)Nc1ccc3c(C)cc(=O)oc3c1)CO2	-0.15	15
CN1CCN(CCOc2ccccc2)CC1	-0.35	0.46
CCOc1ccc2cc(C3CC(c4ccc(C)cc4)=NN3C(C)=O)c(=O)[nH]c2c1 (stereo not given)	nt	-0.76
O=C(CN1CCN(c2ncnc3sc(-c4ccccc4)cc23)CC1)N1CCCC1	0.55	nt
Cc1ccc(CSc2n[nH]c(-c3ccccc3O)n2)cc1	0.4	nt
COC(=O)CNC(=O)c1cc2cc(Cl)ccc2oc1=O	-0.5	2.1
O=C(NC1CCCCC1)C1CCC(=O)N1C1CCCCC1 (stereo not given)	2	0.38
CC(C)Sc1nc2c(c(=O)n1-c1ccc(F)cc1)SCC2	-0.9	-0.07
O=S(=O)(c1ccc(Cl)cc1)n1nccc1-c1cc(-c2ccccc2)no1	-0.3	-0.12
O=[N+]([O-])c1cccnc1Oc1ccc(F)cc1	nt	0.27
O=C1N/C(=N/N=C\c2ccco2)SC1Cc1cccc(C(F)(F)F)c1 (stereo not given)	0.2	nt
O=C(CN1C(=O)c2ccccc2S1(=O)=O)c1ccc2c(c1)OCCCO2	0.3	0.73
COC(=O)C1=C(C)N(Cc2cccnc2)C(=O)/C1=C\c1ccc(OC)cc1OC	0.25	-1.4
COc1ccc(C2C(C(=O)NC(C)C)c3ccccc3C(=O)N2Cc2ccc(F)cc2)cc1 (stereo not given)	-0.8	-0.06
CSc1ccc(C=C2C(=O)OC3(CCCCC3)OC2=O)cc1	-0.25	-0.12
CCCCOc1cccc(NC(=O)CSC2=C(C#N)C(c3ccccc3)C(C(=O)Nc3ccccc3OC)=C(C)N2)c1 (stereo not given)	nt	-0.33
O=C(CCCN1C(=O)c2cccc3cccc(c23)C1=O)N1CCN(Cc2ccc3c(c2)OCO3)CC1	nt	8.4
O=C(CN1C(=O)CCSc2ccccc21)NCCCc1ccccc1	-0.95	-0.73
COc1ccc(CNC(=O)CSc2nc(C)cc(=O)[nH]2)cc1	-1.1	nt
C=CCOC(=O)C1=C(C)NC(SC)=C(C#N)C1c1ccccc1OC (stereo not given)	-0.8	nt
CCCC1(CCC)NC(=O)N(Cn2nnc3ccccc3c2=O)C1=O	0	nt
CCOC(=O)CN=C1NC(=O)C(c2ccccc2)(c2ccccc2)N1	0.2	0.74

Filtered by structure: the compounds so far containing a nitro group on carbon
SMILES	AID504770	Ba CapD inh
CN(/N=C/c1cc(Cl)cc(Cl)c1O)c1ccc([N+](=O)[O-])cn1	nt	0.79
O=[N+]([O-])c1cccnc1Oc1ccc(F)cc1	nt	0.27

(cont.)
SMILES	AID504770	Ba CapD inh
O=S(=O)(Cc1ccc(-c2csnn2)cc1)c1ccc(Cl)cc1	0.4	-0.46
CC(Sc1nc2cc(Cl)ccc2c(=O)n1C1CCCCC1)C(=O)NC(N)=O (stereo not given)	-0.75	nt
CC1=CCC(C(=O)O)C(C(=O)NC2CCCCC2)C1 (stereo not given)	2.6	-1.8
Cc1ccsc1CNC(=O)CCC(=O)O	-0.05	0.39
Cc1noc(C)c1C(=O)n1cc2c(n1)-c1cc(F)ccc1SC2	0.5	8.8
Cc1[nH]c(-c2ccc(F)cc2)cc1C(=O)NC1CCCCC1	0.65	0.22
CC(C)C(=O)N1CCN(c2nc3ccccc3o2)CC1	-0.85	-0.71
CC(=O)OC1CCC(OC(C)=O)c2c1n([O-])c(C)c(C)[n+]2=O (stereo not given)	0	-0.4
O=C(/C=C/c1ccccn1)NC(Cc1c[nH]c2ccccc12)C(=O)O (stereo not given)	-0.45	0.085
Cc1c(C)n(CC(O)CNCc2ccccc2)c2ccccc12 (stereo not given)	0.15	0.05
O=C(N1CCOCC1)C1(c2ccccc2)CCCC1	nt	0.3
COCCn1c(-c2ccccc2)nc(=S)c2c1CCCC2	1.4	nt
Cc1cc(C)n(-c2nnc3c(n2)[nH]c2ccccc23)n1	1.2	-0.75
O=C(/C=C/c1cc2c(cc1Br)OCO2)NCc1ccccc1Cl	nt	0.06
CC1CC(Nc2ccccc2)c2ccccc2N1C(=O)CN1C(=O)c2ccccc2C1=O (stereo not given)	nt	-0.73
O=C(NCc1ccc(S(=O)(=O)N2CCOCC2)s1)c1ccc(Cl)cc1	-0.35	-0.41
CCN1C(=S)SC(=O)C1=C1C=C(C)OC(C)=C1	1.8	nt
C#CCOC(=O)Nc1c(-c2ccccc2)noc1C	-0.4	0.78
